GIRK2 activ: activators of human GIRK2 potassium channels. calls only for hits at 25 µM. HEK293-GIRK2 thallium flux, Thallos fluorescence. 0.05% of 63,000 active. P48051;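 active = among the strongest 0.2% of first-round signals and kept after retests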;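 note: first round at about 10 µM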
Target sequence (P48051 whole entry, looked up): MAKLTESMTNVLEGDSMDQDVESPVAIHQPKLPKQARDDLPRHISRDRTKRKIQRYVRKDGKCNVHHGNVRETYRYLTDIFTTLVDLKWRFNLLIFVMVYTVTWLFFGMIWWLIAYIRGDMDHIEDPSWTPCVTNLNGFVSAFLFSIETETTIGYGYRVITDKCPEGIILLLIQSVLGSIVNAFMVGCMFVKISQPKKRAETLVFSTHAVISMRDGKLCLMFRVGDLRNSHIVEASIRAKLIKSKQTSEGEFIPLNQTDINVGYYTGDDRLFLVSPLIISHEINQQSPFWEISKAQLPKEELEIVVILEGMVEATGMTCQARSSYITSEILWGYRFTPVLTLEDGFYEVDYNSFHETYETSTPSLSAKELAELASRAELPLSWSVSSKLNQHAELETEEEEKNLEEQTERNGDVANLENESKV
Calls only; i = inactive.

GIRK2 activ | molecule
i | COc1cccc2sc(N3CC(OC(=O)c4ccc(F)cc4Cl)C3)nc12
i | Cc1ccc(S(=O)(=O)c2nc(-c3cccs3)oc2N2CCOCC2)cc1
i | O=S(=O)(CCOCc1ccc(-c2ccc3ncnc(Nc4ccc(OCc5cccc(F)c5)c(Cl)c4)c3c2)o1)c1ccccc1
i | COc1cc(-c2ccc(O)cc2)c(OC)c(O)c1-c1ccc(O)cc1
i | COc1cc(C)c(C(C)C)cc1S(=O)(=O)N1CCN(c2ccc(F)cc2)CC1
i | COC(=O)N1CCc2ccc(Br)cc2C1C(=O)Nc1ccon1 (centres undefined)
i | COc1ccc2c(c1)c(CC(=O)N[C@@H](C)c1ccc(C)cc1)c(C)n2C(=O)c1ccc(Cl)cc1
i | CC1CCN(C(=O)CN2CC(c3nc(-c4cccnc4)no3)C2)CC1
i | CSc1nnc(-c2ccccc2NC(=O)c2ccc(C)c(S(=O)(=O)N3CCOCC3)c2)o1
i | C#CCn1c(C2CC(=O)N(c3cccc(OC)c3)C2)nc2ccccc21 (centres undefined)
i | O=C(OC[C@@H]1OC1c1ccccc1)Oc1ccc([N+](=O)[O-])cc1 (some centres undefined)
i | O=C(Cn1cc(C(=O)c2ccc(Cl)cc2)c(=O)c2cc3c(cc21)OCO3)Nc1ccc(Cl)cc1
i | O=C(Nc1oc2ccccc2c(=O)c1-c1cccc(Cl)c1)c1ccco1
i | COc1ccccc1NC(=O)CSc1nccn1-c1cccc(C(=O)NCc2ccc(C)cc2)c1
i | Cc1ccc2[nH]c3c(=O)n(CCC(=O)N4CCC(C(N)=O)CC4)cnc3c2c1
i | CCCCCCCCCCCCCCCCOCC(CO)OC (centres undefined)
i | O=C(Oc1ccc2c(c1)OCO2)N1CCOCC1
i | COCCOC(=O)C1=C(C)NC(=O)NC1c1ccc(O)cc1 (centres undefined)
i | O=C(/C=C/c1ccccc1)N1CCC(Cn2ccnc2-c2ccccc2)CC1
i | COc1ccc(OC)c(C(=O)Nc2cc(C)nn2-c2nc3ccccc3s2)c1
i | CS(=O)(=O)N1CCCc2ccc(NC(=O)C(=O)NCCC(O)c3cccs3)cc21 (centres undefined)
i | COc1cccc2cc(C(=O)N3CCOC(c4cc(Cl)cc(Cl)c4)C3)oc12 (centres undefined)
i | S=c1[nH]c(-c2ccccc2)cs1
i | O=C(Cn1cnc2ccccc2c1=O)Nc1ccc(-c2ccn[nH]2)cc1
i | COc1ccccc1NC(=O)/C=C/C1=Cc2ccccc2OC1
i | O=C(c1cn(-c2cccc(F)c2)nn1)N1CCN(c2ccccc2)CC1
i | CC(C)N(CC#CCNC(=O)Cc1ccccc1Cl)C(C)C
i | S=c1[nH]cnc2scc(-c3ccc(Cl)cc3)c12
i | COc1ccc(SCCCC(=O)Nc2nc(-c3ccc(C#N)cc3)cs2)cc1
i | O=C(NCc1ccco1)c1ccc2c(=O)n(-c3ccccc3)c(=O)[nH]c2c1
i | C/C(=C\COC1OC(CO)C(O)C(O)C1O)CC/C=C(\C)CCC(O)C(C)(O)CCCC(C)(O)CCCC(C)(O)CCCC(C)(O)CCCC(C)(O)CCCC(C)(O)CCCC(C)(C)O (centres undefined)
i | COc1ccc(C(=O)N2CCC(COCc3ccccc3)CC2)cc1
i | CCN(CC)S(=O)(=O)c1ccc(-c2nc(C#N)c(N3CCCCC3)o2)cc1
i | Cc1ccc(OCC(=O)Nc2ccc3c(c2)CCCN3S(=O)(=O)c2ccccc2)cc1
i | CCc1ccc(C(=O)N2CCN(Cc3cnnn3-c3ccccc3)CC2)cc1
i | COc1cccc(NC(=O)N2CC(c3nc4ccc(C)cc4[nH]3)C2)c1OC
i | CCOc1ccccc1C(=O)NCCn1nc(C)cc1C
i | CS(=O)(=O)Nc1cccc(NC(=O)C2CCN(c3ccc(-n4cccn4)nn3)CC2)c1
i | Cc1ccc(SCCCC(=O)Nc2sc3c(c2-c2nc4ccccc4s2)CCN(C)C3)cc1
i | CCOc1cc(S(=O)(=O)N2CCN(CCO)CC2)ccc1F
i | Cc1cc(C)n(-c2cc(SCC(=O)Nc3ccc(Br)cc3)ncn2)n1
i | CC(=O)Nc1ccc(S(=O)(=O)N2CCCc3ccccc32)cc1
i | COc1ccc(-c2ccc(=O)n(CCNS(=O)(=O)c3ccc(OC)c(F)c3)n2)cc1
i | Cc1ccc(C2C(C(=O)c3sc(C)nc3C)=C(O)C(=O)N2CCN(C)C)o1 (centres undefined)
i | Cc1cc(C)c(S(=O)(=O)NC(C)Cn2cncn2)c(C)c1 (centres undefined)
i | COc1ccccc1N1CCCn2c1nc1c2c(=O)n(Cc2cccc(C)c2)c(=O)n1C
i | COc1ccc2nc(CN3CCN(C(=O)C4(c5ccccc5)CCOCC4)CC3)[nH]c2c1
i | COc1ccc(N2C(=O)/C(=C/c3ccncc3)SC2=S)cc1
i | CC1=NN(CC(=O)O)c2nc3c(c(=O)n(CC(C)C)c(=O)n3C)n2C1
i | CN(C)S(=O)(=O)c1ccc(C(=O)Nc2nnc(-c3ccsc3)o2)cc1

Ordered by count of non-hydrogen atoms (descending): three of the compounds above.
GIRK2 activ | molecule
i | C/C(=C\COC1OC(CO)C(O)C(O)C1O)CC/C=C(\C)CCC(O)C(C)(O)CCCC(C)(O)CCCC(C)(O)CCCC(C)(O)CCCC(C)(O)CCCC(C)(O)CCCC(C)(C)O (centres undefined)
i | O=C(c1cn(-c2cccc(F)c2)nn1)N1CCN(c2ccccc2)CC1
i | S=c1[nH]cnc2scc(-c3ccc(Cl)cc3)c12

Next part.
GIRK2 activ | molecule
i | O=C(Nc1ccnc2ccc(Cl)cc12)c1ccc(N2C(=O)CCC2=O)cc1
i | Cc1cc(C(=O)N2CCN(CC(O)C3CC3)CC2)no1 (centres undefined)
i | COc1ccccc1C1(C(=O)NCC(O)c2ccc3c(c2)CCO3)CCOCC1 (centres undefined)
i | COc1ccc(S(=O)(=O)NCCn2nc(-c3ccccc3)ccc2=O)c(OC)c1
i | O=C(CCCCCn1c(=S)[nH]c2cc3c(cc2c1=O)OCO3)NCCCN1CCOCC1
i | CC(O)CN1CCN(C(=O)c2cc(-c3ccc4c(c3)OCO4)n[nH]2)CC1 (centres undefined)
i | CCn1cc(C(=O)NCc2ccc(C(C)C)cc2)c(S(=O)(=O)N2CCSCC2)n1
i | CCOC(=O)N1CCN(Cc2cc(=O)oc3cc4c(cc23)OCO4)CC1
i | COc1ccc(OC)c2sc(NC(=O)Nc3ccc4c(c3)OCO4)nc12
i | NS(=O)(=O)c1ccc(NC(=O)CSc2nnc3scc(-c4ccc(Cl)cc4)n23)cc1
i | Cc1cc(=O)[nH]c(-n2nc(-c3cccs3)cc2NC(=O)/C=C\c2ccccc2)n1
i | Cc1ccccc1-c1noc(Cn2cccc2C(=O)N2CCN(c3ccccc3F)CC2)n1
i | CCn1c(COc2ccc(Cl)c3cccnc23)nnc1SCC(N)=O
i | COc1cccc(C(=O)N2CCN(Cc3nc(C4CC4)cs3)CC2)c1
i | N#Cc1ccc(Cl)cc1NC(=O)C(=O)NCCC(c1ccccc1)c1ccccc1
i | Cc1ccc(C)c(NC(=O)Cn2nc3c(N4CCCC(C)C4)nccn3c2=O)c1 (centres undefined)
i | COC(=O)NCc1cc(C)oc1C
i | COC(=O)Cn1c(=O)c2c(nc3n(-c4ccc(C)cc4)c(-c4ccccc4)cn23)n(C)c1=O
i | CC(=O)Nc1ccc(Cl)c(NC(=O)c2cccc(S(=O)(=O)N3CCOCC3)c2)c1
i | O=C(/C=C/c1ccccc1)Nc1cc(N2CCN(c3ccccc3)CC2)ncn1
i | NC(=O)C1CCN(CCOc2ccc3c(=O)c(-c4ccc(Br)cc4)coc3c2)CC1
i | O=C(Nc1ccc(CN2CCN(c3ccccn3)CC2)cc1)Nc1cccs1
i | O=C(c1ccc(Br)o1)N(CC1CCCO1)c1nc2c(Cl)cccc2s1 (centres undefined)
i | Cc1ccc(Cc2cnc(NC(=O)c3cc4ccccc4c(=O)s3)s2)cc1
i | N#Cc1nc(-c2ccc(S(=O)(=O)N3CCCC3)cc2)oc1N1CCc2ccccc2C1

In the list so far, these contain a cyano group:
GIRK2 activ | molecule
i | COc1ccc(SCCCC(=O)Nc2nc(-c3ccc(C#N)cc3)cs2)cc1
i | CCN(CC)S(=O)(=O)c1ccc(-c2nc(C#N)c(N3CCCCC3)o2)cc1
i | N#Cc1ccc(Cl)cc1NC(=O)C(=O)NCCC(c1ccccc1)c1ccccc1
i | N#Cc1nc(-c2ccc(S(=O)(=O)N3CCCC3)cc2)oc1N1CCc2ccccc2C1

Retrieved by structure from above (four):
GIRK2 activ | molecule
i | COC(=O)N1CCc2ccc(Br)cc2C1C(=O)Nc1ccon1 (centres undefined)
i | CC(=O)Nc1ccc(Cl)c(NC(=O)c2cccc(S(=O)(=O)N3CCOCC3)c2)c1
i | CCOc1cc(S(=O)(=O)N2CCN(CCO)CC2)ccc1F
i | CCOC(=O)N1CCN(Cc2cc(=O)oc3cc4c(cc23)OCO4)CC1

Further records:
GIRK2 activ | molecule
i | COc1ccc(-c2noc(-c3nnn(-c4ccc(OC)c(Cl)c4)c3N)n2)cc1
i | COCCN1CCC(NC(=O)c2cc(Cl)ccc2OC)CC1
i | COc1ccc(N2CCCS2(=O)=O)cc1NC(=O)C(=O)NCC1(c2cccs2)CCOCC1
i | COC(=O)c1ccc(Cl)c(NC(=O)CCC2CCCCC2)c1
i | CC(=O)Nc1ccc(NC(=O)c2sccc2S(=O)(=O)N2CCN(c3ccccc3)CC2)cc1
i | O=C(CC(c1ccccc1)c1ccccc1)NCCCS(=O)(=O)N1CCN(c2ccccn2)CC1
i | Cc1cc2oc3c(c(=O)c2cc1C)C(c1ccccc1)N(CCCN1CCOCC1)C3=O (centres undefined)
i | O=S(=O)(c1cccnc1)N1CC(Oc2nc3c(C(F)(F)F)cccc3s2)C1
i | Cn1c(=O)c2c(nc(Br)n2CC(O)COc2ccc(Cl)cc2Cl)n(C)c1=O (centres undefined)
i | O=C(N1CCOCC1)N1CCN(S(=O)(=O)N2CCCC2)CC1
i | CS(=O)(=O)NCCCN1CCN(c2ccccc2)CC1
i | COc1ccc(-c2ccc(=O)n(CCNS(=O)(=O)c3c(C)cc(C)cc3C)n2)cc1
i | CCOCCn1c(N2CCN(CCc3ccccc3)CC2)nc2c1c(=O)[nH]c(=O)n2C
i | Cc1nc(-n2nc(C3CC3)cc2NC(=O)c2ccc(S(=O)(=O)N3CCCC3)cc2)[nH]c(=O)c1C
i | COc1ccc(N2CCN(C(CNS(=O)(=O)c3cc(F)ccc3F)c3cccnc3)CC2)cc1 (centres undefined)
i | O=C(c1cc2n(n1)CCCO2)N1CCC2(CC1)OCCO2
i | O=C(c1ccc2c(c1)OCO2)N(Cc1ccoc1)Cc1cccs1
i | O=c1c(SCc2cccc([N+](=O)[O-])c2)nccn1-c1ccc(F)cc1
i | COc1nn(C)cc1C(=O)NCC1(OC)CCSC1 (centres undefined)
i | CS(=O)(=O)N(Cc1ccoc1)Cc1cccs1
i | CCOc1ccccc1-c1noc(C2CC(=O)N(c3c(C)cccc3C)C2)n1 (centres undefined)
i | COc1ccc2c(c1)c(=O)c(S(=O)(=O)c1ccccc1)cn2CC(=O)Nc1ccccc1
i | Cc1nnsc1C(=O)N1CCN(C(=O)C2CC2c2cccs2)CC1 (centres undefined)
i | O=C(Cn1ccc2ccccc21)Nc1cc(N2CCN(Cc3ccccc3)CC2)ncn1
i | Cc1cc(C)c2c(n1)sc1c(N3CCC(C(=O)NC4CCCCCC4)CC3)ncnc12
i | CCOc1ccccc1Oc1coc2cc(OC(=O)c3ccc([N+](=O)[O-])cc3)ccc2c1=O
i | Cc1noc(CNC(=O)/C=C/c2ccc3c(c2)OCO3)n1
i | COc1cc(Br)cc2cc(C(=O)NNC(=O)c3ccncc3)c(=O)oc12
i | CCOc1ccccc1NC(=O)C1(c2cccs2)CCCC1
i | CS(=O)(=O)CCNCc1nc(-c2ccc3ncnc(Nc4ccc(OCc5cccc(C(F)(F)F)c5)cc4)c3c2)cs1
i | COc1ccc(C(=S)N2CCN(C(=S)Nc3ccc(Cl)cc3)CC2)cc1
i | O=c1c2ccccc2oc2nc(-c3ccc(F)cc3)n(-c3ccccc3)c(=O)c12
i | COCCCNc1nc2c(c(=O)[nH]c(=O)n2C)n1CC(=O)c1ccccc1
i | Cc1ccc(CCC(=O)Nc2c(C)cccc2C(=O)O)o1
i | O=C(CCCc1ccccc1)NCc1ccc(C(O)c2cccs2)s1 (centres undefined)
i | CC(C)Oc1ccc(C(O)=C2C(=O)C(=O)N(CCN(C)C)C2c2cccs2)cc1F (centres undefined)
i | COc1cccc(C(=O)Nc2ccc3c(c2)N(C(C)=O)CCC3)c1
i | COc1ccc(Nc2n[nH]nc2C(=O)Nc2cc(Cl)ccc2OC)cc1
i | Cc1ccc(N2CN(CC(=O)NCc3cccs3)S(=O)(=O)c3cccnc32)cc1
i | O=C(NCC1CCCO1)c1ccc(=O)n(Cc2cccc(F)c2)n1 (centres undefined)
i | O=S(=O)(c1ccc(Br)cc1)N1CCCN(S(=O)(=O)c2ccc(Br)cc2)CC1
i | O=C(CCS(=O)(=O)c1ccccc1)N1CCCSCC1CN1CCCC1 (centres undefined)
i | O=C(NCCOc1ccccc1)NCC1(c2cccs2)CCCC1
i | CN1CCN(c2cc(NC(=O)c3cc4ccccc4o3)ncn2)CC1
i | CCCc1cc(-c2n[nH]c(COCC(=O)O)c2-c2nc3ccccc3s2)c(O)cc1O
i | O=C(/C=C/c1ccc2c(c1)OCO2)Nc1nc2c(s1)COCC2
i | CCc1cc2c(=O)c(-c3nc(C)cs3)c(C)oc2cc1OCc1ccc([N+](=O)[O-])cc1
i | Cc1ccc2[nH]c3c(=O)n(CCC(=O)O)cnc3c2c1
i | CC1CC2C3CCC4=CC(=O)C=CC4(C)[C@@]3(Cl)C(O)CC2(C)C1(O)C(=O)CO (some centres undefined)
i | NS(=O)(=O)c1ccc(CCNC(=O)COc2ccc(-n3cccn3)nn2)cc1
i | Cc1cc(SCC(=O)Nc2ccccc2)n2nc(C)c(-c3ccc(Cl)cc3)c2n1
i | Cc1ccccc1CC(=O)Nc1cc(N2CCCC2)ncn1
i | O=C(CCn1ccc(=O)[nH]c1=O)Nc1ccc2c(c1)N(C(=O)c1ccccc1)CCC2

Some of the compounds tested (hit frequency here may not be typical).
